# Screening results: PubChem, National Center for Advancing Translational Sciences (NCATS)
# RE007 growth inh: less growth of the S. pombe RE007 Vpr strain | Potency, µM (highest dose often 92.2 µM), without a hit: at the highest dose activity change, negative = less growth | actives 0.21% (n = 360,000) | S. pombe RE007 Vpr strain, BacTiter-Glo ATP luminescence, 24 h; control for the full effect not named in the record | AID 651644; active = well fitted falling curve with a large enough effect; inconclusive = small, poorly fitted or top-dose-only effect; inactive = no such curve, though single readings can be large or run the other way;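 further: on the % scale 0 is the no-effect control and ±100 the full control effect; nearly all actives have a fitted effect of over 50% in size; the assay follows cell death caused by Vpr and the record does not say whether a fall means rescue or toxicity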
#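 Fission yeast strain RE007, carrying one chromosomally integrated HIV-1 vpr copy, was seeded at OD 0.01 in PMG+AL medium with 23 nL pinned compound. After 24 h at 30 °C and 99% humidity, viability was read by BacTiter-Glo luminescence.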
# Cruzain noTriton: cruzain (T. cruzi) inhibition without detergent; purified cruzain, Z-FR-AMC fluorescence, no detergent; Potency, µM, inactives show max response, negative = inhibition, actives largely listed as inhibitors; P25779; actives 2.3% (n = 200,000); active means well fitted curve in the direction sought with a large enough effect; inconclusive means small, poorly fitted or top-dose-only effect, or another doubt; inactive means no such curve, though single readings can be large; an effect the other way counts as inactive or inconclusive;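 further: plate controls were enzyme without inhibitor for no effect and buffer without enzyme for full effect; nearly all actives have a fitted effect of over 40% in size; top concentration of the series not given in the record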
# Target sequence (P25779 123-467 limits assumed): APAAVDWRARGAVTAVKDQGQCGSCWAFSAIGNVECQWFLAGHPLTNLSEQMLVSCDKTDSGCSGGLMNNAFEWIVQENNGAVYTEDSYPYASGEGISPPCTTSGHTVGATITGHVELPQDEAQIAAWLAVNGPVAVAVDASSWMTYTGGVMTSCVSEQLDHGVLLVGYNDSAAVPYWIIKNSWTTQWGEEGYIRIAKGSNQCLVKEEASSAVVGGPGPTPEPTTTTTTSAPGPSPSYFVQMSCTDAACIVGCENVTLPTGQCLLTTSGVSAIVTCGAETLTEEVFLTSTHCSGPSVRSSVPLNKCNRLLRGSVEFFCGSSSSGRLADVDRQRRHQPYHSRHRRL
#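 Purified cruzain at 1.5 nM, pre-incubated 15 min with compound at room temperature in 100 mM sodium acetate pH 5.5, 5 mM DTT, 0.00005% Triton X-100. Reaction started with 2 uM Z-FR-AMC; AMC fluorescence increase over 60 s gives rate.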
# MARV entry inh: blocks Marburg virus binding to or entry into cells; Marburg virus pseudotyped entry inhibition, cell reporter; control for the full effect not named in the record; about a third of the inactives were read at about 46 µM; Potency, µM (top dose mostly 37.8 µM), without a hit: at the top dose activity change, negative = inhibition, usual class: inhibitors; actives 1.8% (n = 300,000); active = well fitted inhibition curve with a large enough effect; inconclusive = small, poorly fitted or top-dose-only effect, or effect the other way; inactive = flat fitted curve, though single readings scatter; tested in HEK293 cells; about a fifth of its hits are not listed in these tables; further: on the % scale 0 is the no-effect control and ±100 the full control effect; luciferase read-out
# StopGo reporter: FMDV 2A StopGo reporter, luciferase signal. actives 1.2% (n = 410,000). Potency, µM (doses to about 57.9 µM), without a hit: at the top dose signal change, negative = less light. human cells with a luciferase reporter of 2A StopGo recoding; control for the full effect not named in the record; active = well fitted falling curve with a large enough effect; inconclusive = small, poorly fitted or top-dose-only effect; inactive = no such curve, though single readings can be large or run the other way; tested in HEK293T cells; further: on the % scale 0 is the no-effect control and ±100 the full control effect; nearly all actives have a fitted effect of over 45% in size; luciferase light after 4 h
# NS1 function inh: inhibitors of influenza NS1 protein function; S. cerevisiae slowed by influenza A NS1, growth recovery by OD600; Potency, µM (top dose mostly 46.1 µM), without a hit: top-dose activity, positive = more growth; actives 0.4% (n = 270,000); AID 2326; further: actives are rising curves; nearly all actives have a fitted effect of over 50% in size
#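 Growth recovery, yeast-based: influenza A NS1 expressed in S. cerevisiae causes slow growth, and suppressors are detected by OD600. The parent strain without NS1 is used as positive control.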
# Cruzain inh Det: blocks cruzain activity in presence of Triton detergent. P25779. Potency, µM, for inactives: max response, negative = inhibition, actives largely listed as inhibitors. actives 0.43% (n = 200,000). purified cruzain, Z-FR-AMC fluorescence, 0.01% Triton; active means well fitted curve in the direction sought with a large enough effect; inconclusive means small, poorly fitted or top-dose-only effect, or another doubt; inactive means no such curve, though single readings can be large; an effect the other way counts as inactive or inconclusive;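 further: plate controls were neutral wells for no effect and buffer without enzyme for full effect; nearly all actives have a fitted effect of over 40% in size; top concentration of the series not given in the record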
#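 Cruzain (1.5 nM) preincubated 15 min at RT with compound in 100 mM sodium acetate pH 5.5, 5 mM DTT, 0.01% Triton X-100. Reaction started with 2 uM Z-FR-AMC; AMC fluorescence (ex 360/em 450 nm) change over 60 s gave rate.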
# SARS PLpro yeast: SARS-CoV PLP inhibition in yeast. S. cerevisiae expressing SARS-CoV PLpro, growth rescue; control for the full effect not named in the record. Potency, µM (highest dose often 32.9 µM), for the others: at the highest dose activity, positive = growth rescue. actives 0.19% (n = 330,000); further: 0% is about no effect; nearly all actives have a fitted effect of over 55% in size; growth read by luminescence after 48 h
# LASV entry inh: inhibitors of Lassa virus binding or cell entry | Potency, µM (titrated, usually from 37.9 µM), without a hit: at the top dose activity change, negative = inhibition, most hits filed as inhibitors | Lassa virus pseudotype entry inhibition, cell reporter; control for the full effect not named in the record | actives 1.2% (n = 300,000); active means well fitted inhibition curve with a large enough effect; inconclusive means small, poorly fitted or top-dose-only effect, or effect the other way; inactive means flat fitted curve, though single readings scatter; tested in HEK293 cells; further: on the % scale 0 is the no-effect control and ±100 the full control effect; nearly all actives have a fitted effect of over 50% in size; luciferase read-out
# * = called active by the depositor; ? = inconclusive; . = no result given; [ ] = dose if it differs, or a comment. Unless noted, the call rests on the fitted dose curve; in most records, active means well fitted rising curve with a large enough effect; inconclusive means small, poorly fitted or top-dose-only effect; inactive means no such curve, though single readings can be large or run the other way. Potency means the concentration at half of the fitted maximal effect.
# Results follow in this order: RE007 growth inh	Cruzain noTriton	MARV entry inh	StopGo reporter	NS1 function inh	Cruzain inh Det	SARS PLpro yeast	LASV entry inh
- COc1ccc(Br)cc1/C=N/NC(=O)C[n+]1ccccc1
    -8%	.	.	-8%	-1%	.	-2%	.
- CCc1ccccc1NC(=O)C(Cc1cccc(OC)c1OC)c1nn[nH]n1 (stereo unspecified)
    -12%	-1%	19%	39%[activator]	-5%	4.6%	-1%	13%
- CCc1ccc(OCCCC(=O)Nc2nccs2)cc1
    5%	.	-10%[46.1 µM]	2%	-42%	.	0%	6%
- CC(=O)Nc1ccc(NC(=O)c2ccccc2Nc2ccccc2)cc1
    -4%	.	2%[46.1 µM]	9%	-10%	.	-4%	-11%
- Cc1cc(C)cc(NC(=O)C(C)N2C(=O)c3ccccc3C2=O)c1 (stereo unspecified)
    -11%	.	-1%	-1%	14%	.	-5%	5%
- Cc1cc(C)nc(NS(=O)(=O)c2ccc(NC(=O)COc3ccccc3)cc2)n1
    4%	-1%	22%	60%[activator]	-3%	-5.2%	8%	-2%
- Cc1ccc(S(=O)(=O)c2nc(S(C)(=O)=O)sc2NCc2ccccc2)cc1
    .	15%	-30%[46.1 µM]	22%	.	-4.2%	.	?
- O=C(NCc1ccccn1)C(=O)NCC1OCCCN1S(=O)(=O)c1ccc(F)cc1 (stereo unspecified)
    -11%	.	3%	2%	12%	.	4%	13%
- O=C(CCc1nc2ccccc2c(=O)[nH]1)Nc1nnc(SCc2ccc(Cl)cc2)s1
    -4%	.	16%[46.1 µM]	-24%	.	.	-8%	0%
- CC(C)Cn1c(=S)[nH]c2cc(C(=O)O)ccc2c1=O
    2%	.	.	-13%	16%	.	1%	.
- Cc1ccccc1NC(=O)CNC(=O)Cc1cccc2ccccc12
    -7%	.	-25%	8%	.	.	1%	5%
- O=S(=O)(c1ccc(F)c(F)c1)N1CCCc2ccccc21
    -21%	.	.	4%	-7%	.	1%	.
- CC(C)(C)NS(=O)(=O)c1ccc(NS(C)(=O)=O)cc1
    -8%	-4%	17%	9%	-7%	3.4%	13%	-3%
- COC(=O)CN1C(=O)[C@H]2[C@@H](c3ccc(C)o3)N3C(=O)CN(CCO)C(=O)[C@@]3(Cc3ccccc3)[C@H]2C1=O
    -2%	.	.	-14%	5%	.	2%	.
- Cc1ccccc1OCC(=O)NNC(=O)c1ccc2c(=O)n3c(nc2c1)CCC3
    -12%	.	10%	-17%	.	.	-6%	7%
- CC(C)(O)[C@H]1O[C@H]2CC[C@@]3(C)[C@@](O)(CC[C@H]4Cc5c([nH]c6ccccc56)[C@@]43C)C2=CC1=O
    -9%	.	.	-16%	6%	.	-25%	.
- CCOC(=O)Cc1csc(NC(=O)CSc2nnc(C(C)C)n2C)n1
    18%	1%	-30%[46.1 µM]	-11%	1%	3.4%	2%	17%
- O=C(NCCC1CCCCN1S(=O)(=O)c1cccs1)C(=O)Nc1ccccc1 (stereo unspecified)
    -18%	.	?	-17%	.	.	-1%	?
- COc1ccccc1C(=O)NCCC(=O)NCC(C)(C)N1CCOCC1
    4%	.	21%	-5%	10%	.	-6%	2%
- COc1cc(/C=C/C(=O)O)cc(S(=O)(=O)Nc2cc(C(F)(F)F)ccc2N2CCOCC2)c1OC
    -5%	.	-16%	2%	.	.	8%	18%
- CC(=O)Nc1nnc(SCC(=O)NCC2CCCO2)s1 (stereo unspecified)
    -4%	0%	-7%	.	-1%	3.5%	4%	-7%
- COc1ccc(CNC(=O)CSc2n[nH]c(C)c2[N+](=O)[O-])cc1
    7%	-3%	?	-11%	11%	-3.6%	5%	10%
- O=c1oc2ccccc2cc1-c1cn2cc(Cc3cc(Cl)ccc3Cl)sc2n1
    .	-7%	?	12%	.	-0.3%	.	7%[46.1 µM]
- Cc1cc(C)cc(N2CC(C(=O)NC3CCCCC3)CC2=O)c1 (stereo unspecified)
    -5%	.	0%[46.1 µM]	-5%	9%	.	1%	.
- CSc1nc2nc(C)c(CCC(=O)OCC(=O)Nc3ccc(F)cc3)c(C)n2n1
    10%	.	9%	-20%	.	.	5%	0%[46.1 µM]
- O=C(Nc1ccc(S(=O)(=O)N2CCc3ccccc3C2)cc1)c1ccccc1
    -4%	?	-26%	?	1%	-2.6%	-5%	?
- COc1cc2c(cc1OC)C(C)N(C(=O)c1cc3c(s1)-c1ccccc1OC3)CC2 (stereo unspecified)
    12%	-21%	1%	?	?	?	-53%	-9%
- CN(C)CCNC(=O)c1[nH]nc2c1CCc1ccccc1-2
    -4%	.	?	74%[activator]	-4%	.	1%	24%
- CCCNc1c(NS(=O)(=O)c2ccc(Br)cc2)c(=O)oc2ccccc12
    6%	.	?	-10%	-3%	.	-5%	0%[46.1 µM]
- Cc1ccc(S(=O)(=O)NCCC(=O)Nc2cc(F)ccc2C)cc1C
    -19%	.	3%[46.1 µM]	23%	-11%	.	-1%	-3%
- CCOc1ccc(Cc2c(O)[nH]c(=O)[nH]c2=O)cc1
    5%	-13%	3%	13%	6%[9.22 µM]	2.8%	4%	6%
- CC1CC(=O)N(c2ccc(Br)cc2)C(=O)C1
    5%	.	.	2%	1%	.	-1%	.
- COC(=O)c1c(NC(=O)C2CCCO2)sc2c1CCC2 (stereo unspecified)
    -20%	11%	19%	11%	-69%	-3.8%	3%	0%
- CC(C)c1nnc(NC(=O)CSc2nnc(-c3ccco3)o2)s1
    7%	.	-29%[46.1 µM]	7%	-4%	.	-1%	22%
- Cc1ccc(NCc2nnc(SCC(=O)N(Cc3ccccc3)C(C)(C)C)o2)c(C)c1
    -12%	11%	-21%	-26%	4%	-8.7%	-2%	-1%
- Cc1cc(C)cc(NC(=O)C(=O)NCc2ccccn2)c1
    -4%	2%	-3%	-7%	1%	-0.8%	?	1%
- COc1cccc2cc(C(=O)NCc3ccccn3)c(=O)oc12
    22%	-4%	21%	21%	-3%	-4.8%	-5%	-1%
- CCCn1c(CC)nc([N+](=O)[O-])c1Sc1ccc(F)cc1
    -6%	1%	-2%	18µM*	18%	5.8%	5%	-2%
- Cc1csc(NC(=O)CSC2=NCCS2)n1
    0%	.	1%[46.1 µM]	3%	9%	.	5%	20%[46.1 µM]
- Cc1c(-c2nnc(SCC(=O)Nc3ccc(Cl)cc3)o2)nnn1-c1ccc(F)cc1
    .	7%	.	10%	.	-1.4%	.	28%[46.1 µM]
- O=C(NN=C1CCCC1)c1sc2ccccc2c1Cl
    12%	.	?	33%[activator]	.	.	15%	?
- CC(C)(CSc1ccccn1)NS(=O)(=O)c1ccc(Cl)cc1
    -2%	-5%	18%	-6%	-16%	-7.3%	3%	?
- CC(C)C(=O)Nc1ccc(-c2nc3ccccc3c(=O)o2)cc1
    -15%	.	-13%	1%	5%	.	0%	-26%
- COc1ccc(C(CC(=O)Nc2ccc(F)cc2)c2ccccc2)cc1 (stereo unspecified)
    8%	17%	?	-8%	-2%	-3.4%	-10%	-1%
- CCN(CC)c1ccc(C(=S)N2CCN(c3ccccc3)CC2)cc1
    6%	-2%	-1%	12%	-13%	0.7%	1%	11%
- Cc1ccc(N2CC(C(=O)NCc3ccc4c(c3)OCO4)CC2=O)cc1C (stereo unspecified)
    1%	-12%	0%	6%	3%	-0.5%	0%	?
- O=C(NCCCN1CCCCC1)c1ccc2c(c1)sc1nc(-c3ccc(F)cc3)cn12
    .	10%	.	32%[activator]	.	2.6%	.	11%[46.1 µM]
- COCc1cc(C)[nH]c(=O)c1C(=O)NC12CC3CC(CC(C3)C1)C2
    -2%	.	14%[46.1 µM]	2%	-3%	.	0%	8%[46.1 µM]
- Cc1ccccc1NC(=O)CSc1nnc(CNC(=O)c2ccco2)n1C
    7%	.	-2%	12%	.	.	0%	-3%
- Cc1ccc(S(=O)(=O)NCC(C)n2nc(C)nc2C)cc1 (stereo unspecified)
    2%	.	?	19%	-2%	.	0%	-15%[46.1 µM]
- CCC(=O)c1ccc(OCC(O)CN2C(=O)NC(C)(C)C2=O)cc1 (stereo unspecified)
    2%	-7%	3%	-15%	2%	5.0%	-3%	.
- Cc1cc(C)cc(NC(=O)C(OC(=O)c2cccs2)c2ccccc2)c1 (stereo unspecified)
    4%	?	?	25%	-14%	-7.1%	5%	-4%
- CCN1CCN(CCNC(=O)c2ccc(CS(=O)c3ccc(Cl)cc3)o2)CC1 (stereo unspecified)
    -2%	.	?	1%	7%	.	-1%	?
- C[C@@H]1CN(C(=O)c2nc3ccc(Cl)cn3c2CN2CCc3sccc3C2)C[C@H](C)O1
    -1%	.	.	-10%	1%	.	-1%	.
- CC(=O)c1ccc(N2CCN(C(=S)Nc3ccccc3F)CC2)cc1
    5%	-3%	0%	-22%	5%	-3.9%	10%	1%
- Cc1nc(-c2ccc(C(=O)Nc3ccccc3F)cc2)cs1
    -9%	.	?	8.9µM*	.	.	-1%	?
- CCCCCC(=O)N1CC2(CC(c3cccc(NC(=O)c4ccccc4)c3)=NO2)C[C@@H]1C(N)=O (stereo partly specified)
    -23%	?	2%	-18%	11%	-1.3%	3%	.
- CCOC(=O)c1cnn(-c2ccccc2)c1N
    4%	?	6%	.	-9%	4.9%	2%	2%
- Cc1nc(SCC(=O)NC(C)c2ccccc2)c2oc3ccccc3c2n1 (stereo unspecified)
    3%	4%	4%	?	-4%	-5.2%	-5%	-1%
- Cn1c2c(c(=O)n(C)c1=O)C(NS(=O)(=O)c1ccccc1)(C(F)(F)F)C(=O)N2 (stereo unspecified)
    4%	1%	4%	12%	-3%	3.2%	-2%	6%
- CCOC(=O)c1cc(NC(=O)c2ccc(C)cc2)c(=O)n2c1oc1ccccc12
    .	1%	-4%[46.1 µM]	-1%	.	0.8%	.	8%[46.1 µM]
